Bioassay records (PubChem)
AmpC inh no det: AmpC beta-lactamase inhibition, detergent-free assay. 1.8% of 71,000 active. Potency, µM (titrated, usually from 28.7 µM), inactives show top-dose activity change, negative = inhibition. AmpC nitrocefin hydrolysis, absorbance 480 nm, no detergent; potencies from a single point are estimates. P00811; active = falling curve, for most hits resting on a single point; inconclusive = weak or doubtful change; inactive = flat or rising curve; further: % of control where 0% means no effect; about half of the hits show no inhibition at the top dose; a quarter of the inactives give rising signals
Target sequence (P00811 whole entry, looked up): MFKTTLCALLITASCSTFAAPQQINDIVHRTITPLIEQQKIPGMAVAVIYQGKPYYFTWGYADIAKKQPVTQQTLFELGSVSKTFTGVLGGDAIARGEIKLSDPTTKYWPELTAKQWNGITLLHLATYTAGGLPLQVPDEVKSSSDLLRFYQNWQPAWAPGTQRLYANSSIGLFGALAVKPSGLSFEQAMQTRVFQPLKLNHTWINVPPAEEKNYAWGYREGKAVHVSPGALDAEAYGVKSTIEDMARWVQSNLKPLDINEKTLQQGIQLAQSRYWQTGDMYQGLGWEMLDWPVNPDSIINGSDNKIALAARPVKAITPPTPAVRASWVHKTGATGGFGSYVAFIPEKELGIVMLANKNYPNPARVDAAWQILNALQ
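Enzyme, pH 7.0 phosphate. Compound titrations were pre-incubated with AmpC for 15 min at room temperature before nitrocefin (stock 800 uM) addition; product formation was recorded at 480 nm every 20 s for 4 min.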
The depositor's hits bear a star; ? = inconclusive; [ ] = remark or other dose. Potency means the concentration at half of the fitted maximal effect.

SMILES	AmpC inh no det
O=S(=O)(c1ccc(F)cc1)N1CN(Cc2ccco2)c2nc3ccccc3nc21	5.9%
O=C(CSc1ncnc2ccccc12)Nc1ccc(N2CCOCC2)cc1	4.2%
O=C(Nc1cccc(F)c1)N1CC2(CCNCC2)C1	3.9%
Cn1c(=O)c(-c2cc(F)cc(F)c2)nc2cnc(Oc3cccc(Cl)c3)nc21	-4.6%
CSc1ccccc1NC(=O)CSc1nnnn1-c1ccccc1SC	-9.1%
O=C(Nc1ccccc1C(=O)NCc1ccco1)c1ccco1	-6.2%
CCc1cccc(C)c1NC(=O)C1=C(C(=O)O)CCCC1	-0.8%
CCOC(=O)N1CCN(C(=O)CSc2nnc(-c3cccs3)o2)CC1	21.7%
Cc1ccc2nc3c(cc2c1)c(NC(=O)c1cccnc1)nn3C	-22.4%
COc1ccc(C(c2nnnn2Cc2cccs2)N2CCN(c3ccccc3)CC2)cc1OC (stereo unspecified)	91.7%
O=[As](O)(O)c1ccc(N=Nc2ccc(O)cc2)cc1	-10.5%[5.75 µM]
COc1cccc(-c2nnc(SCC(=O)OC(C)C)n2Cc2ccco2)c1	33.9%
COC(=O)c1ccc(COC(=O)c2ccc(-n3cnnn3)cc2)o1	2.6%
O=C(CCNS(=O)(=O)c1cccc2nsnc12)N1CC(=O)N(CCc2ccccc2)C(=O)C1	29.9%
CCN1CCN(C(=O)CN(c2ccc(C)cc2)S(C)(=O)=O)CC1	-7.3%
C=CCOc1c(Br)cc(CNn2nnnc2N)cc1OC	-3.5%
O=C(O)c1cccc(S(=O)(=O)N2CCSCC2)c1	5.9%
CN(C)c1nc(OCCNC(=O)COc2ccc(Cl)cc2Cl)nc(N2CCCCC2)n1	135.8%
COc1ccccc1-n1c(SC)nc(O)cc1=O	2.51µM*[single pt active]
CCCCCCn1c(-c2ccco2)nc2oc3cc(OC)ccc3c(=O)c2c1=O	23.0%

In the list so far, 5 have a furan ring, fused or not.
SMILES	AmpC inh no det
O=S(=O)(c1ccc(F)cc1)N1CN(Cc2ccco2)c2nc3ccccc3nc21	5.9%
O=C(Nc1ccccc1C(=O)NCc1ccco1)c1ccco1	-6.2%
COc1cccc(-c2nnc(SCC(=O)OC(C)C)n2Cc2ccco2)c1	33.9%
COC(=O)c1ccc(COC(=O)c2ccc(-n3cnnn3)cc2)o1	2.6%
CCCCCCn1c(-c2ccco2)nc2oc3cc(OC)ccc3c(=O)c2c1=O	23.0%

The list continues:
SMILES	AmpC inh no det
c1ccc(Nc2nc(-c3ccc4c(c3)OCO4)nc3ccccc23)cc1	1.3%
CC(C)n1nnnc1SCC(=O)N1CCOCC1	-11.3%
O=C(CN1CCOCC1)Nc1nc(-c2ccc3c(c2)CCN3S(=O)(=O)c2ccccc2)cs1	103.2%
COc1ccc2c(c1)C1(Nc3ccccc3C(=O)N1c1ccccc1)C(=O)N2 (stereo unspecified)	-15.0%
O=C(CSc1cccc(C(F)(F)F)c1)NC(=O)NCc1ccco1	-22.6%
COCCOc1nc2ccccc2nc1C	-1.8%
O=C(O)c1ccc(CNC(=O)c2ccc(Br)o2)cc1	-8.0%
COc1ccc(C(=O)Cn2c(Br)nc3c2c(=O)n(C)c(=O)n3C)cc1	28.0%
COc1ccc2sc(NC(C)=O)nc2c1	-10.0%
c1ccn2c(SCc3ccc4c(c3)OCO4)nnc2c1	-7.8%
Cn1c(N)c(C(=O)c2cc(-c3ccccn3)nc3ccccc23)c(=O)[nH]c1=O	1.8%
CCNC(=O)c1nc[nH]c1C(=O)NCC	-7.3%
Cc1cc(=O)[nH]c(SCc2cc(Cl)ccc2OC(F)F)n1	?
Cc1cc(C)n(-c2ccc(C(=O)Oc3ccc4c(c3)OCO4)cc2)n1	15.2%
Cc1nn(-c2ccccc2)c(Oc2ccc(F)cc2)c1/C=N/n1cnnc1	82.5%
c1nc(N2CCOCC2)c2sc3nc(N4CCOCC4)c4c(c3c2n1)CCCC4	36.0%
COc1ccc(CC(=O)Nc2c3c(nn2-c2cccc(C)c2C)CS(=O)C3)cc1 (stereo unspecified)	28.2%
CCOC(=O)N1CCN(Cc2cc(=O)oc3ccc(Cl)cc23)CC1	28.3%
O=C1OCC(Cn2c3ccccc3c3ccccc32)O1 (stereo unspecified)	7.0%
COc1cc2c(cc1OC)C(C(=O)Nc1ccc3c(c1)OCCO3)C(c1cccnc1)N(C)C2=O (stereo unspecified)	31.3%
COc1cc2c(=O)n(CCCN3CCOCC3)c(=S)[nH]c2c(OC)c1OC	32.5%
Cn1c(=O)[nH]c(=O)c2c1nc(N1CCCCCC1)n2CC(=O)c1ccccc1	9.4%
Cc1oc(-c2ccc(Cl)cc2)nc1CN1CCC(C(=O)N2CCN(c3ccccn3)CC2)CC1	59.3%
CCOC(=O)c1[nH]c2ccc(OC)cc2c1NS(=O)(=O)c1ccc(OC)cc1OC	22.1%
O=C(CN(CCN1CCOCC1)C(=O)Cn1nnc(-c2ccc(F)cc2)n1)NC1CCCCC1	95.4%
CCNCCCNCCCCNCCCNCC	12.6%
CC1CCCCN1S(=O)(=O)c1ccc(S(=O)(=O)N2CCN(c3ccc(F)cc3)CC2)cc1 (stereo unspecified)	?
CC(C)NC(=O)N1CC[C@@]2(CCCNC2)C1	0.2%
Cc1nc(=O)cc(-c2ccccc2)n1-c1ccccc1	6.6%
Cc1sc2ncnc(OCC(=O)N3CCN(S(=O)(=O)c4ccc(Cl)cc4)CC3)c2c1C	86.9%
CCN(CC)P1(=O)OC(c2cc(OC)c(OC)c(OC)c2)=Nc2c1c(C)nn2-c1ccccc1 (stereo unspecified)	96.3%
C=Cc1ccc(C=C)cc1	-3.8%
CC(Sc1nnnn1C)C(=O)Nc1ccc(Oc2ccccc2)cc1 (stereo unspecified)	15.7%
Cc1nc2ccccc2nc1OCC(=O)N1CCN(c2ccccc2)CC1	18.1%
Fc1ccc(-c2nc3n(n2)Cc2ccccc2-3)cc1	23.2%
O=C(CCCNS(=O)(=O)c1cccs1)N1CCN(c2ccc(F)cc2)CC1	43.0%
COc1cccc(C2C(C(=O)c3ccc(C)o3)=C(O)C(=O)N2CCCN(C)C)c1 (stereo unspecified)	-6.4%
CCc1nc2ccccc2n(CCOCCOCCn2c(=O)c(CC)nc3ccccc32)c1=O	124.7%
CC(C)C(=O)Nc1nc2c(ncn2C2CC(O)C(CO)O2)c(=O)[nH]1 (stereo unspecified)	-8.8%
CCN(CC)CCOC(=O)[C@@H](c1ccccc1)C1CCCCC1	36.5%[12.8 µM]
Cn1c(=O)oc2cc(S(=O)(=O)N3CCC(N4CCCCC4)CC3)ccc21	-7.1%
CCOCCSC1=C(C#N)C(c2cccs2)C(C(C)=O)=C(C)N1 (stereo unspecified)	18.2%
CC(C)=CC/C=C1\CCC(C(=O)O)C(C(=O)O)C1 (stereo unspecified)	-6.4%
CCCCn1c(NC(=O)c2ccccc2Cl)c(C#N)c2nc3ccccc3nc21	16.8%
Cc1ccc(N2C(=O)CSC2c2cccs2)cc1 (stereo unspecified)	-11.5%
N#C/C(=C\c1ccc(O)c(O)c1)C(=O)NCCCNC(=O)/C(C#N)=C/c1ccc(O)c(O)c1	-19.7%
Cc1ccc(SCCC(=O)N2CCC(C(N)=O)CC2)cc1	21.7%
CC(C)n1c(SCC(=O)N2c3ccccc3Sc3ccccc32)nc2c1c(=O)n(C)c(=O)n2C	108.9%
O=C(Oc1ccccc1)N1CCC2(CCCN(c3ccccn3)C2)CC1	57.4%
Cc1csc(NC(=O)c2cccc(S(=O)(=O)N3CCCCC3)c2)n1	-2.9%
CC1=C2[C@@H]3OC(=O)[C@@H](C)[C@@H]3CC[C@]2(C)C=CC1=O	-8.4%[12.8 µM]
Cc1cc2ccccc2n1CCNC(=O)c1ccc(S(=O)(=O)N2CCOCC2)cc1	21.1%
CCOC(=O)C1CCCN(c2c(NCCCN(C)c3ccccc3)c(=O)c2=O)C1 (stereo unspecified)	42.3%
COCc1nnc(NC(=O)CSc2ccccc2)s1	-8.3%
Cc1nc2ccccn2c1/C(O)=C1\C(=O)C(=O)N(CCN2CCOCC2)C1c1cccnc1 (stereo unspecified)	-0.7%
N#Cc1ccccc1-c1ccc2ncnc(N3CCNCC3)c2c1	9.9%
O=c1c(CCc2ccccc2)nc2cnc(N3CCOCC3)nc2n1-c1ccccc1	32.8%
OCCNCCCCCOc1ccc(F)cc1	-0.4%
O=C1c2sc3nc4c(c(=O)n3c2C(=O)N1c1ccccc1)CCC4	-12.7%
CC(C)(C)CC(C)(C)c1ccc(OCOCCOCCO)c(Cc2cc(C(C)(C)CC(C)(C)C)cc(Cc3cc(C(C)(C)CC(C)(C)C)ccc3OCOCCOCCO)c2OCOCCOCCO)c1	158.6%[12.8 µM]

(cont.)
SMILES	AmpC inh no det
Cc1ccccc1NC(=O)c1cc(S(=O)(=O)N2CCOCC2)ccc1F	11.8%
CS(=O)(=O)N(CC(=O)NCc1cccnc1)Cc1ccc(Cl)cc1	-8.2%
Cc1ccc(S(=O)(=O)NCCCC(=O)C=[N+]=[N-])cc1	-0.2%
Cc1cc(C)nc(N2CCCC(C(=O)NCCc3ccccc3F)C2)n1 (stereo unspecified)	26.7%
COC(=O)c1cn(C(C)C(=O)NCc2ccco2)c2ccccc12 (stereo unspecified)	19.3%
O=C(c1cc2c(=O)oc3ccccc3c2s1)N1CCN(c2ccccn2)CC1	2.9%
Cc1ccc(OCCOCCn2ccnc2)c(Br)c1	13.3%
CN(C)c1ccc(-c2nn3c(-c4cccnc4)nnc3s2)cc1	80.1%
Cc1cc(C)c2nc(N3CCC(C(=O)N4CCN(c5ncccn5)CC4)CC3)sc2c1	147.2%
Cc1ccc(S(=O)(=O)N2CCCC(C(=O)N3CCC4(CC3)OCCO4)C2)cc1 (stereo unspecified)	36.0%
COC(=O)c1cc(OC)c(OC)cc1NC(=O)c1c(C)noc1C	12.3%
COc1ccc(NC(=O)c2ccc(S(=O)(=O)N3CCOCC3)cc2)c(OC)c1	33.4%
c1ccc(OCc2nn3c(-c4n[nH]c5c4CCC5)nnc3s2)cc1	14.1%
c1ccc(Cn2nnnc2C(c2cccnc2)N2CCN(c3ccccc3)CC2)cc1 (stereo unspecified)	82.5%
CC(C)CCNC(=O)c1cnn2c(C(F)(F)F)cc(-c3ccco3)nc12	56.2%
CC(=O)c1cccc(OCC(O)CN2CC=C(c3ccccc3)CC2)c1 (stereo unspecified)	28.3%
O=C(c1ccc2c(c1)OCCCO2)c1cccs1	0.7%
CC(=O)c1c(C)[nH]c(C(=O)N2CCCCCC2)c1C	15.2%
Cn1cccc1C(=O)N1CCC2(CCN(Cc3ccncc3)CC2)CC1	6.5%
CSc1nc(C)c2c(n1)OC(CN1C(=O)c3ccccc3C1=O)C2 (stereo unspecified)	-3.9%

Sorted by count of non-hydrogen atoms (high to low): some entries from above.
SMILES	AmpC inh no det
Cc1cc(C)c2nc(N3CCC(C(=O)N4CCN(c5ncccn5)CC4)CC3)sc2c1	147.2%
Cc1ccc(S(=O)(=O)N2CCCC(C(=O)N3CCC4(CC3)OCCO4)C2)cc1 (stereo unspecified)	36.0%
CC(=O)c1c(C)[nH]c(C(=O)N2CCCCCC2)c1C	15.2%

Next entries follow:
SMILES	AmpC inh no det
COC(=O)C1=C(C)N(CCc2ccc(OC)cc2)C(=O)C1	48.8%
O=C(NCc1ccco1)Nc1ccc2snnc2c1	-10.8%
O=C1c2ccccc2C(=O)N1CCc1nc(-c2cccnc2)no1	-2.2%
CN1CCN(C(=O)c2sc(=S)n(-c3ccccc3)c2N)CC1	-8.5%
CCOc1ccc(CCNC(=O)C2CCN(C(=O)N(C)C)CC2)cc1OCC	7.7%
Cc1noc(NS(=O)(=O)c2ccc(NC(=O)CSc3ncccn3)cc2)c1C	-8.1%
O=C(NCCN1CCN(C(=O)c2cc3ccccc3oc2=O)CC1)c1cc2ccccc2oc1=O	84.4%
COc1ccc2c(Cl)c(-c3nnc4n3CCCCC4)sc2c1	105.8%
Cc1cc(C(=O)OCC(=O)Nc2cc(C)on2)c2ccccc2n1	-2.7%
CC1CC(C)CN(c2ncnc3c2cnn3Cc2ccc(Cl)cc2)C1 (stereo unspecified)	39.0%
CCOc1ccc(C(=O)Cc2ccc3oc(C(=O)O)cc3c2)c(O)c1	-7.2%
c1ccc(CNc2cc(-c3cccnc3)ncn2)cc1	6.8%
COc1cc(C(=O)NCc2cn3ccccc3n2)cc(OC)c1OC	-2.0%
CC(C)[C@H](Sc1nc(N)nc2nc[nH]c12)C(=O)O	-4.0%[5.75 µM]
O=C(NCc1ccc2c(c1)OCO2)C1CC(=O)N(C2CCCCCC2)C1 (stereo unspecified)	31.5%
CC1CC(C)CN(C(=O)CSc2nnc(-c3ccc(F)cc3)o2)C1 (stereo unspecified)	12.7%
CCOC(=O)c1oc2ccc(S(=O)(=O)N3CCOCC3)cc2c1C	9.6%
CCCc1cc(C(N)=O)c(NC(=O)c2cc(C)on2)s1	-1.1%
C=CCN1C(=O)/C(=C2/Sc3ccccc3N2C)SC1=Nc1c(C)n[nH]c1C	34.0%
COc1ccc2[nH]c(=O)c(CN(C(=O)c3ccccn3)c3ccccc3)cc2c1	5.6%
CCOC(=O)c1c(C)nc2ccccn12	-1.7%
CCCCOc1ccc(C(=O)CCN2CCCCC2)cc1	12.2%[12.8 µM]
O=C(NCc1ccccc1)N(Cc1cc2cc3c(cc2[nH]c1=O)OCO3)CC1CCCO1 (stereo unspecified)	32.9%
CCOc1ccccc1NC(=O)CSc1nnc(-c2cnccn2)n1CC	33.7%
CC(=O)c1cc2c(cc1NC(=O)CN1CCN(c3cccc(C(F)(F)F)c3)CC1)OCO2	37.4%
CCOC(=O)C1=C(O)/C(=C/N(C)C)N=C1C	4.8%
CCOC(=O)C(C(=O)OCC)[C@@H]1CS(=O)(=O)C[C@H]1C(C(=O)OCC)C(=O)OCC	40.9%

Part of the list above, bar-delimited:
Compound | AmpC inh no det
COC(=O)C1=C(C)N(CCc2ccc(OC)cc2)C(=O)C1 | 48.8%
CCNC(=O)c1nc[nH]c1C(=O)NCC | -7.3%
O=C(NCc1ccc2c(c1)OCO2)C1CC(=O)N(C2CCCCCC2)C1 (stereo unspecified) | 31.5%
O=C(NCCN1CCN(C(=O)c2cc3ccccc3oc2=O)CC1)c1cc2ccccc2oc1=O | 84.4%

A portion of the library (hit frequency here may not be typical).
